D2 ag – human D2 receptor agonism in beta-arrestin assay; DiscoveRx PathHunter D2 beta-arrestin, luminescence, 90 min; 100% = 57 uM dopamine signal; activation, % (concentration not given with the values); 0.084% of 360,000 active; AID 624465; in the data active = activation above about 40%; inconclusive = about 15% to 40%; inactive = below about 15%; note: compound concentration not given in the record; the text of the record calls up to 30% inactive
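DiscoveRx PathHunter D2 beta-arrestin cells (2,100/well) attached overnight, then compound-stimulated 90 min at 37 C in HBSS/10 mM HEPES/0.1% Tween-20 buffer; beta-galactosidase complementation read by luminescence after 1 h at ambient temperature. Dopamine 57 uM final (EC100) as control.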
CtBP-E1A blk – CtBP/E1A binding inhibition; AlphaScreen GST-E1A/His-CtBP binding, 1536-well; stronger effect = lower value; control for the full effect not named in the record; activity change, % (no concentration beside the values); 0.49% of 340,000 active; in the data active means activity change below about -65%; inconclusive means about -30% to -65%; inactive means above about -30%; note: % is set by controls: 0 for no effect and ±100 for the full control effect; compound concentration not given in the record
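AlphaScreen with 125 nM GST-E1A and 125 nM His-CtBP (5X stocks) in Tris pH 8.0, 300 mM NaCl, BSA, Tween 20, TCEP. Compounds preincubated 2 h at 37 deg C, then glutathione donor/nickel acceptor beads added for 1 h at 37 deg C in dark.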
TRPML1 inh – inhibitors of human TRPML1 channel; Q9GZU1; TRPML1-inducible cells, Ca2+ dye fluorescence, FDSS; stronger effect = lower value; inhibition of EC80 agonist-evoked calcium signal; activity change, negative = inhibition, % (no concentration beside the values); 0.02% of 390,000 active; in the data active means activity change below about -50%; inconclusive means about -30% to -50%; inactive means above about -30%;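 note: stimulus is agonist 54-4 at its EC80 concentration; % is set by controls: 0 for no effect and ±100 for the full control effect; compound concentration not given in the record; the text of the record puts the active cut at -80%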
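Calcium fluorescence in TRPML1-DL cells induced overnight with Tet: a 110 s read after compound pin addition, then a 110 s antagonist read after challenge with 54-4 at 4 uM final (EC80).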
PINK1 expr mod – PINK1 expression modulation; AID 624263; 0.2% of 410,000 active; Potency, µM (titrated, usually from 76.6 µM), inactives show at the highest dose activation (PINK1 increase), hits mostly activators; PINK1 immunofluorescence, high-content cytometry, 24 h; active = well fitted activation curve with a large enough effect; inconclusive = small, poorly fitted or top-dose-only effect; inactive = flat fitted curve, though single readings scatter; cell line not stated here;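 note: potency is the fitted concentration of half-maximal effect; % of control where 0% means no effect; nearly all actives have a fitted effect of over 65% in size; a mitochondrial uncoupler was the plate control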
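Stable cell line treated 24 h with compounds at 5 concentrations (CCCP controls), then fixed and immunostained for PINK1 plus nuclear and cell stains; PINK1 immunofluorescence quantified by laser-scanning microplate cytometry.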
Six1-Eya2 inh – inhibitors of human Six1/Eya2 interaction | AlphaScreen GST-Six1/His-Eya2 binding, biochemical; stronger effect = lower value; control for the full effect not named in the record | Q15475+O00167 | activity change, % (test concentration not listed) | 0.56% of 360,000 active | AID 651725; in the data active = activity change below about -65%; inconclusive = about -30% to -65%; inactive = above about -30%; note: % is set by controls: 0 for no effect and ±100 for the full control effect; compound concentration not given in the record
Target sequence (O00167 whole entry, looked up): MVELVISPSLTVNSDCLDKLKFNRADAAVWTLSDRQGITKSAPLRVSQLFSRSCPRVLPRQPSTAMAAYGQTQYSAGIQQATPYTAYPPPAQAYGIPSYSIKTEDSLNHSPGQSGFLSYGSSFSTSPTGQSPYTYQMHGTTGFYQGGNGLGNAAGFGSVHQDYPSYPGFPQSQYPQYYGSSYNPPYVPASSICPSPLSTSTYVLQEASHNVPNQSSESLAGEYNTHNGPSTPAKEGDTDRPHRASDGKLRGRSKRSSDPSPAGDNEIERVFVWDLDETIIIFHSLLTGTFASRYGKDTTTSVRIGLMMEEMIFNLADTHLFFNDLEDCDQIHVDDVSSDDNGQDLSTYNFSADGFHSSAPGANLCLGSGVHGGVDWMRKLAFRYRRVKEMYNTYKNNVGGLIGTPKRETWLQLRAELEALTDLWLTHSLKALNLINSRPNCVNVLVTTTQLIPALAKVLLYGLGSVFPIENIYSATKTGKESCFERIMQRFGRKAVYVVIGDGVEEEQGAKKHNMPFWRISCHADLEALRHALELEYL
Target sequence (Q15475 whole entry, looked up): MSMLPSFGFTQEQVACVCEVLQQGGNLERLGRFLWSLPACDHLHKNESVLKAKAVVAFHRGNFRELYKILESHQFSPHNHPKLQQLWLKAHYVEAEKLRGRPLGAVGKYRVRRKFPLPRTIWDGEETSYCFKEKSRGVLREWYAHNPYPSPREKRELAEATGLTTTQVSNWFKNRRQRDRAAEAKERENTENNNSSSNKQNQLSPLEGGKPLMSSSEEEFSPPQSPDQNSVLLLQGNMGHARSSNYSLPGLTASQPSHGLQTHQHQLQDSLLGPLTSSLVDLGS
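GST-Six1 + His-Eya2 (5X stock: 250/500 nM); Tris pH 8.0, 300 mM NaCl, 0.05% BSA, 0.02% Tween 20; GSH donor/Ni acceptor beads; 1 h 37 °C dark; AlphaScreen readout.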
TRPML1 ag – human mucolipin-1 channel agonism | TRPML1-expressing cells, Ca2+ dye fluorescence, FDSS; host cell line not named in the record; reference of the full effect not given here | 0.12% of 410,000 active | AID 624414 | activation, % (concentration not given with the values); in the data active = activation above about 50%; inconclusive = about 30% to 50%; inactive = below about 30%; note: 0% is about no effect; the text of the record puts the active cut at 80%
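In this qHTS format, compounds were pin-transferred onto Ca8-dye-loaded TRPML1-DL cells induced with Tet overnight, and intracellular Ca2+ fluorescence was recorded kinetically for 110 s after a 10 s baseline. A subsequent 4uM final 54-4 (EC80) addition followed by a second 110 s read served as the antagonist phase.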
Active calls of the source: *; ? = inconclusive; nt = not tested or not shown; [ ] = remark or other dose. An unsorted share of the library; any-hit rate near 1%.

SMILES	D2 ag	CtBP-E1A blk	TRPML1 inh	PINK1 expr mod	Six1-Eya2 inh	TRPML1 ag
CCc1ccc(NC(=O)c2ccc(CN3CC(=O)N4CCCCC4C3=O)cc2)cc1 (configuration not stated)	nt	nt	-13.9	2.1%	nt	0.9
COc1cc(C(=O)OCC(=O)c2c[nH]c3ccccc23)ccc1OCC(=O)N1CCOCC1	0.5	-11.7	-2.4	-2.2%	-2.5	3.2
CC(C)C(=O)Nc1ccc2c(c1)nc(CCN1CCN(c3ccccc3)CC1)n2C	-1.8	nt	67.5	-0.4%	10.6	1.4
Cc1ccc2c(c1)N(CC(=O)NC1CCCC1)C(=O)c1cccnc1O2	-2.6	6.5	3.5	0.6%	0.3	0.4
COc1ccc2nc(SCC(O)c3cccc(Br)c3)[nH]c2c1 (configuration not stated)	nt	nt	16.1	0.6%	nt	1.5
COc1ccc(-c2nc(C)ncc2-c2ccc(Cl)cc2)c(O)c1	-2.3	-2.6	nt	2.6%	0.0	nt
O=C(Cn1ncn2c(cc3sccc32)c1=O)NCCc1ccccc1	nt	nt	-24.1	0.5%	nt	-0.5
O=C(COC(=O)c1sc2ccccc2c1Cl)NC1CCCCC1	-2.3	-11.1	0.4	2.4%	-1.3	-0.5
CCN(CC)S(=O)(=O)c1ccc(OCC(=O)NCc2ccco2)cc1	0.8	1.5	-9.2	-0.4%	2.3	1.8
COc1ccc2c(=O)c(-c3ccc(OC)c(OC)c3)coc2c1	-2.9	0.3	nt	0.7%	0.5	nt
CCCCc1nc2ccccc2n1Cc1nnc2n1-c1ccccc1SC2	-2.9	-0.7	25.2	0.0%	-0.5	-0.7
Cc1ccccc1C(=O)NC1CCN(CC(=O)Nc2ccc3c(c2)OCCO3)CC1	-1.7	-3.8	1.2	1.9%	-5.5	4.4

One compound at a time, as listed above. Order of screens: D2 ag | CtBP-E1A blk | TRPML1 inh | PINK1 expr mod | Six1-Eya2 inh | TRPML1 ag
`Cc1ccccc1C(=O)NC1CCN(CC(=O)Nc2ccc3c(c2)OCCO3)CC1` is entered as -1.7 | -3.8 | 1.2 | 1.9% | -5.5 | 4.4
`CCCCc1nc2ccccc2n1Cc1nnc2n1-c1ccccc1SC2` is entered as -2.9 | -0.7 | 25.2 | 0.0% | -0.5 | -0.7
`COc1ccc2c(=O)c(-c3ccc(OC)c(OC)c3)coc2c1` is entered as -2.9 | 0.3 | nt | 0.7% | 0.5 | nt
`Cc1ccc2c(c1)N(CC(=O)NC1CCCC1)C(=O)c1cccnc1O2` is entered as -2.6 | 6.5 | 3.5 | 0.6% | 0.3 | 0.4
`COc1ccc(-c2nc(C)ncc2-c2ccc(Cl)cc2)c(O)c1` is entered as -2.3 | -2.6 | nt | 2.6% | 0.0 | nt

Further structures:
SMILES	D2 ag	CtBP-E1A blk	TRPML1 inh	PINK1 expr mod	Six1-Eya2 inh	TRPML1 ag
CN(Cc1ccccc1)C1CC(=O)N(c2ccc(C(=O)O)cc2)C1=O (configuration not stated)	-0.1	7.1	6.4	20.0%[38.3 µM]	-1.8	-0.1
Cc1ccc2[nH]c3c(NCc4ccco4)ncnc3c2c1	2.0	21.1	12.3	20.7%	-6.8	0.9
COc1ccccc1CN(C)C(=O)c1cccc(S(=O)(=O)N2CCCC2)c1	-4.9	11.7	-1.9	-1.2%	1.2	-0.5
NNC(=O)CNC(=O)CNS(=O)(=O)c1ccccc1	1.1	nt	-11.1	-1.3%	14.1	0.0
Cc1ccc(N(CC(=O)Nc2ccc(Br)cc2)S(=O)(=O)c2cccs2)cc1	nt	nt	-7.3	?	nt	1.5
O=C1CC(=Nc2ccccc2)NN1c1ccccc1	-6.5	-0.6	3.3	0.3%	-16.8	-0.5
CC(=O)O[C@H]1CSC[C@H]1NC(=O)c1ccccc1	-3.3	0.0	27.3	-1.2%	23.7	0.7
CN(C(=O)c1ccc(NC(=O)Cc2ccc(NC(=O)C3CCCN(C(=O)CCc4ccccc4)C3)cc2)cc1)C1CCCC1 (configuration not stated)	2.2	-0.2	-3.3	1.0%	9.2	2.7
O=C(Nc1ccc(Br)cn1)c1cccc2ccccc12	-0.9	-0.5	-4.6	3.0%	-2.7	1.0
Cc1ccc2oc(C(=O)Nc3cccc(-c4nc5ccccc5s4)c3)c(C)c2c1	nt	nt	-9.9	-1.8%	nt	-0.7
Cc1cccc(N2CC(O)=C(c3nc4ccccc4n3C)C2=N)c1	0.5	-4.5	9.0	-2.3%	1.7	-0.2
O=C(CSc1nnc(CNC(=O)c2c(F)cccc2Cl)o1)NCc1ccccc1	11.5	-7.8	-2.2	8.6%	?	-0.4

An excerpt from above in order of their number in TRPML1 inh, lowest first.
molecule,D2 ag,CtBP-E1A blk,TRPML1 inh,PINK1 expr mod,Six1-Eya2 inh
Cc1ccc2oc(C(=O)Nc3cccc(-c4nc5ccccc5s4)c3)c(C)c2c1,nt,nt,-9.9,-1.8%,nt
CN(C(=O)c1ccc(NC(=O)Cc2ccc(NC(=O)C3CCCN(C(=O)CCc4ccccc4)C3)cc2)cc1)C1CCCC1 (configuration not stated),2.2,-0.2,-3.3,1.0%,9.2
Cc1cccc(N2CC(O)=C(c3nc4ccccc4n3C)C2=N)c1,0.5,-4.5,9.0,-2.3%,1.7

(cont.)
SMILES	D2 ag	CtBP-E1A blk	TRPML1 inh	PINK1 expr mod	Six1-Eya2 inh	TRPML1 ag
O=C(NNC(=O)c1ccc[nH]1)c1cccc(C(F)(F)F)c1	5.4	-2.3	16.8	-0.2%	-2.7	0.3
COc1ccccc1Cc1c(-c2ccc(F)cc2)nc2ccc(Br)cn12	-5.5	-19.8	-2.0	15.4%	3.9	1.9
O=[N+]([O-])c1ccc(/C=N/N2CCCCC2)cc1	-0.8	nt	5.1	0.8%	?	1.2
O=S(=O)(Nc1ccc(S(=O)(=O)N2CCCC2)cc1)c1ccccc1Br	6.7	1.8	7.0	0.8%	0.0	1.6
Cn1c(=O)oc2cc(S(=O)(=O)N3CCCC(C(=O)Nc4nccs4)C3)ccc21 (configuration not stated)	-3.4	2.3	4.7	0.1%	1.1	-0.3
Cc1ccc(N(CC(=O)N2CCCCCC2)S(=O)(=O)c2ccccc2)cc1	-1.8	7.0	-16.0	2.3%	2.8	-1.1
CCOC(=O)c1cccnc1SCC(=O)Nc1ccc(C)cc1	-2.3	2.8	8.9	0.1%	8.5	0.5
CCOC(=O)N1CCN(C(=O)c2ccc3c(=O)n(CCc4ccc(OC)c(OC)c4)c(=O)[nH]c3c2)CC1	7.7	4.7	-22.6	0.6%	2.7	2.1
O=C1c2ccccc2CN1CCNC(=S)NC1CCCCC1	1.7	-2.7	9.1	0.0%	1.2	-0.4
Cc1ccccc1C(=O)NC(=S)Nc1ccccc1N1CCCC1	-6.2	-20.0	6.2	13.1%	?	1.7
Cc1ccc(S(=O)(=O)N(c2cccc(C)c2)C2CCS(=O)(=O)C2)cc1 (configuration not stated)	-2.0	8.2	4.6	-3.0%	1.4	-1.5
COc1ccc(O)c(C(=O)c2cnc3c(c2)c(-c2ccc(F)cc2)c(C#N)c(=O)n3C)c1	7.6	0.0	20.5	2.8%	-26.8	1.2
O=C(NCCO)/C(=C/c1ccco1)NC(=O)c1ccco1	-1.3	-19.8	-7.3	-0.5%	0.7	-0.4
Cc1ccc(C(C)C)c(OCCCN2CCc3ccccc3C2)c1	-3.2	nt	nt	?	-9.4	nt
O=C(CCCCn1c(=O)c2ccccc2n(CC(=O)Nc2ccccc2)c1=O)NCc1ccccc1Cl	nt	nt	3.8	1.2%	nt	-0.7
O=C(O)c1ccn(COc2ccc(Br)cc2)n1	-1.8	11.2	2.2	2.4%	-0.5	-0.6
O=C(OCC(=O)N1CCc2ccccc21)c1ccc(Cl)nc1	-0.3	4.1	-5.6	-1.3%[38.3 µM]	4.7	-0.5
COc1ccc(-n2nc3ccc(N)cc3n2)cc1Cl	13.7	nt	nt	0.7%	1.1	nt
CC(c1ccccc1)N1CC(C(=O)N2CCN(Cc3ccc(C#N)cc3)CC2)CC1=O (configuration not stated)	-1.9	2.0	-11.9	-3.9%	1.1	-0.2
COc1cc(CC(=O)N2CCN(C(=O)C3CCCO3)CC2)cc(OC)c1OC (configuration not stated)	0.9	5.0	9.6	-1.2%	1.9	-0.5
O=C(COC(=O)c1ccc(OC(F)(F)F)cc1)Nc1ncccn1	-0.7	-3.8	-27.1	-1.5%	-5.7	1.8
Cc1ccc(S(=O)(=O)c2nc(S(=O)(=O)c3ccc(C)cc3)c(NCc3ccco3)s2)cc1	-0.3	-4.6	23.1	-4.0%[38.3 µM]	-2.8	2.0
O=C(O)CCC(=O)NNC(=O)c1cccc(Cl)c1	1.3	11.0	1.9	2.5%	-13.1	0.2
CC(C)c1ccc(NC(=O)c2ccc(-c3ccnn3C)c3ccoc23)cc1	9.7	-2.8	nt	1.0%	-10.8	0.2
Cc1cc(C)n(Cc2cccc(C(=O)N/N=C/c3ccncc3)c2)n1	4.0	-10.4	-0.1	-0.2%	-4.6	-1.0
Cc1ccc(NC(=S)NCc2ccc(S(N)(=O)=O)cc2)c(C)c1	-2.2	-13.1	7.9	1.1%	2.9	1.3
CCOc1ccc2nc(SCC(=O)NCc3ccccc3OC)[nH]c2c1	1.7	-3.1	3.6	1.1%	5.1	2.1
COC(=O)c1c(/N=C/N(C)C)sc2c1CCN(c1ncc(C(F)(F)F)cc1Cl)C2	-2.6	-2.6	-8.4	5.6%	-17.3	1.0
Cc1cc(=O)n2c3c(c4c(cc13)c(CN(C)C)cc(=O)n4C)OC2	2.4	?	10.5	-1.3%	?	-0.3
CC[C@]12c3[nH]c4ccccc4c3CCN1C(=O)C(CC(=O)NCCCN(C)C)C[C@@H]2C(=O)N1CCN(C(=O)c2ccco2)CC1 (some centres not stated)	-0.7	5.0	-0.2	-0.6%	-0.5	-0.6
Cc1[nH]n(-c2c(Cl)cc(Cl)cc2Cl)c(=O)c1C=Nc1ccc(S(=O)(=O)N2CCOCC2)cc1	-1.1	3.4	-0.9	-0.4%	-1.8	0.6
CCOC(=O)N1CCC(NC(=O)c2cc3ccccn3n2)CC1	-5.9	5.8	-0.6	1.1%	1.5	0.0
O=C(CSc1nnc(CNC(=O)c2cccs2)o1)Nc1ccc2c(c1)OCO2	-1.4	-2.3	-7.0	-1.9%	-0.7	0.0

Screening data: PubChem, National Center for Advancing Translational Sciences (NCATS)
